H5N1 antiviral – MDCK cell protection from H5N1 avian flu | hit rate 0.07% among 96,000 | AID 740 | cytopathic effect, luminescence, 72 h; hits give high values; no value below 0 was filed and about half of the inactive calls have no number; reference of the scale not given here | inhibition, % at 50 µM; in the data active means inhibition above about 25%
* marks the source's active call; other numbers are inactive results; i = inactive.

The first two records (preview)
mol | H5N1 antiviral
CCCCOC(=O)C(C#N)c1nc2ccccc2nc1N1CCN(Cc2ccc3c(c2)OCO3)CC1 (stereo not drawn) | i
O=C(COC(=O)c1ccco1)NCC1CCCO1 (stereo not drawn) | 0.8

All compounds of this part, from the start:
mol | H5N1 antiviral
CCCCOC(=O)C(C#N)c1nc2ccccc2nc1N1CCN(Cc2ccc3c(c2)OCO3)CC1 (stereo not drawn) | i
O=C(COC(=O)c1ccco1)NCC1CCCO1 (stereo not drawn) | 0.8
COc1ccc(OCC(=O)N2CCN(C(=O)COc3ccc(Br)cc3)CC2)cc1 | i
c1csc(Cn2c(-c3cccs3)nc3ccccc32)c1 | 0.3
Cc1onc(-c2ccccc2)c1C(=O)NC(C)C1CCCO1 (stereo not drawn) | i
C=CCN1C(=O)CN=C1Nc1cc(C)cc(C)c1 | 0.2
COc1cccc(-c2csc3nnc(SCC(=O)c4ccc(NC(C)=O)cc4)n23)c1 | 1.8
CN(C)C(=O)CN(c1ccc2c(c1)OCO2)S(C)(=O)=O | i
CCCCNC(c1ccccc1)c1ccncc1 (stereo not drawn) | 2.6
Cn1c2c(c(=O)n(C)c1=O)C(c1ccccc1Cl)CC(=O)N2 (stereo not drawn) | i
Cc1nnc(N(C)C(=O)c2ccccn2)s1 | i
Cn1c(=O)cc(SCC(=O)Nc2ccccn2)c2ccccc21 | i
C=CCc1cc(OC)ccc1OCC(O)CN1CCN(c2ccc(OC)cc2)CC1 (stereo not drawn) | 0.7
c1ccc(-c2nc3cc4ccccc4cc3[nH]2)nc1 | i
CCN(CC)C(=O)CSc1nc(O)c(Cc2ccccc2)c(=O)n1-c1ccccc1 | i
CCc1nnc(NC(=O)c2ccc(S(=O)(=O)N(CC)Cc3ccccc3)cc2)o1 | 3.1
Cc1ccc(S(=O)(=O)c2c(C)cc(C)nc2Oc2cccc(C(F)(F)F)c2)cc1 | i
C=CCC(CC=C)(NC(=O)c1ccccc1)c1ccccc1 | 1.4
CCOC(=O)Cc1nnc(NC(=O)CSc2ccc(Cl)cc2)s1 | i
CCc1cc2ccc(OC)cc2nc1SCC(=O)Nc1cc(C)on1 | 3.3
CC(C)(C)C(=O)/C=c1\[nH]c(=O)/c(=C\c2ccc(C#N)cc2)s1 | 2.5
c1ccc(-c2noc(-c3ccc4ccccc4c3)n2)nc1 | i
Cc1ccccc1N1CC(=O)N(c2ccccc2C)CC1=O | i
COC(=O)c1ccc(NC(=O)Cn2nnc3ccccc32)cc1 | 0.2
COCCn1c(C)cc2c(c1=O)C(c1ccccc1F)C(C#N)=C(N)O2 (stereo not drawn) | i
CCOc1ccc(N(C(=O)/C=C/C(=O)Nc2cc(C)on2)C(C(=O)NC2CCCC2)c2ccccc2C)cc1 (stereo not drawn) | i
CCOC(=O)N1CCN(C(=O)C2CCC(CNS(=O)(=O)c3ccc(Cl)cc3)CC2)CC1 (stereo not drawn) | i
C/C(=N/NC(=O)c1ccccc1O)c1ccc(N2C(=O)C3CCCCC3C2=O)cc1 (stereo not drawn) | 0.5
COC(=O)C1=CN(CC2CCCO2)C=C(C(=O)OC)C1c1ccccc1C(F)(F)F (stereo not drawn) | 0.6
O=C(N/N=C1/CN2CCC1CC2)c1cccc(O)c1 | i

Retrieved one by one from the entries so far, four records:
mol | H5N1 antiviral
COCCn1c(C)cc2c(c1=O)C(c1ccccc1F)C(C#N)=C(N)O2 (stereo not drawn) | i
CCOC(=O)N1CCN(C(=O)C2CCC(CNS(=O)(=O)c3ccc(Cl)cc3)CC2)CC1 (stereo not drawn) | i
C=CCC(CC=C)(NC(=O)c1ccccc1)c1ccccc1 | 1.4
C=CCc1cc(OC)ccc1OCC(O)CN1CCN(c2ccc(OC)cc2)CC1 (stereo not drawn) | 0.7

Going on with the list.
mol | H5N1 antiviral
Cc1ccccc1-n1c(C)nnc1SCc1nc2ccccc2s1 | i
O=C(NC1CCCC1)c1ccccc1-c1nc2ccccc2[nH]1 | 0.4
CC(CN1CCCCC1)OC(=O)C1c2ccccc2Oc2ccccc21 (stereo not drawn) | 1.5
O=S(=O)(c1ccccc1)c1nc(-c2ccco2)oc1NCc1ccco1 | 1.0
CN(Cc1ccccc1)c1ccc(S(=O)(=O)N2CCOCC2)cn1 | 0.6
CCCN1C(=O)c2cc(C(=O)O)ccc2C1O (stereo not drawn) | 0.6
CCC(CC)C(=O)NCCc1ccc(OC)c(OC)c1 | i
COC(=O)CSc1nnc(CNS(=O)(=O)c2ccc(Cl)cc2)n1C | 1.0
Cc1ccc(NC(=O)CCNS(=O)(=O)c2ccc3c(c2)oc(=O)n3C)c(C)c1 | 0.6
C/C(N)=C(/C#N)C(=O)CSc1nnnn1-c1ccccc1 | 0.8
Cc1onc(-c2ccccc2Cl)c1-c1nc(-c2ccccn2)no1 | 0.6
Cc1ccc(-c2cc(C(F)(F)F)c(C#N)c(SCCC#N)n2)o1 | 0.6
CCOC(=O)c1c(NC(=O)CSc2nnnn2-c2ccc3c(c2)OCO3)sc(C)c1C | i
Cc1ccc(S(=O)(=O)Nc2nc3ccc(S(C)(=O)=O)cc3s2)cc1 | 0.3
COc1ccc(N2CCN(Cc3nc4c(c(=O)n(C)c(=O)n4C)n3C(C)C(C)=O)CC2)cc1 (stereo not drawn) | 1.6
O=C(NCc1ccccc1)c1ccc2c(=O)n(CCCN3CCCC3=O)c(=S)[nH]c2c1 | 0.4
CCOCCCNC(=O)c1c[nH]c2ccc(S(=O)(=O)Nc3cccc(OC)c3)cc2c1=O | 0.8
Nc1c(-c2ccccc2)cnn1-c1cccc(C(F)(F)F)c1 | i
C/C=C/CSc1nc2c(c(=O)[nH]c(=O)n2C)n1Cc1ccc(C)cc1 | 0.2
Cc1nc(NCCCN2CCOCC2)c2oc3ccccc3c2n1 | 1.6
COc1ccc(N2CSC3=C(C#N)C(c4cc(OC)ccc4OC)CC(=O)N3C2)c(OC)c1 (stereo not drawn) | 0.6
COC(=O)c1cc(Br)c(=O)n(CC(C)C)c1 | 2.7
C/C(=N\NC(N)=S)C12CC3CC(CC(C3)C1)C2 | i
COc1ccc(OC)c(S(=O)(=O)Nc2cnc3ccccc3c2)c1 | 0.6
O=c1[nH]c(N2CCN(c3ccccc3)CC2)nc2c1CCC2 | i
N=c1c[n+](CC23CC4CC(CC(C4)C2)C3)[n-]o1 | 2.2
CCC(C)(C)n1nnnc1C(c1ccccc1OC)N1CCSCC1 (stereo not drawn) | i
COc1ccc(-c2cc3nc(C)c(CCC(=O)NCc4ccco4)c(C)n3n2)c(OC)c1 | i
CCn1c(/C=C/N(C)c2ccccc2)[n+](CC)c2ccc(Cl)cc21 | 0.4
CCN1CCN(Cc2ccc(OC(F)(F)F)cc2)CC1 | 0.4
Cc1ccccc1NC1C=CS(=O)(=O)C1 (stereo not drawn) | 16.5
COc1ccc(NS(=O)(=O)c2ccc(OCC(=O)N3CCCC3)cc2)cc1 | i
CSc1nnc(Cn2c(=O)sc3ccccc32)n1C | i
CC(NC(=O)NCc1cccnc1)(C(F)(F)F)C(F)(F)F | 0.2
CC(C)Cn1nnc2c(=O)oc3ccccc3c21 | 1.0
Cc1ccc(S(=O)(=O)N2CCC(C(=O)N[C@H](C(=O)NCc3ccco3)C(C)C)CC2)cc1 | 0.3
O=C(CN1C(=O)c2ccccc2C1=O)NCC1COc2ccccc2O1 (stereo not drawn) | 0.6
CCOc1cc(C2Nc3cccc4cccc(c34)N2)ccc1O | 1.7
CC(c1ccccc1)C1C(C#N)=C(N)OC2=C1C(=O)CC(C)(C)C2 (stereo not drawn) | 1.5
CCCCC(=O)Nc1cccc(-c2cn3ccsc3n2)c1 | i
Cn1cccc1/C=C1\SC(=O)N(CC(=O)Nc2ccc(Cl)cc2)C1=O | i
COc1ccc(OC)c(NC(=O)CSc2nc3cccnc3n2C)c1 | 0.9
COc1ccc2c(c1)C(C)CC(C)(C)N2C(=O)CSc1nc2ccccc2s1 (stereo not drawn) | 1.5
Cc1ccc(-n2c(SCC(=O)NCc3ccco3)nnc2-c2cccnc2)c(C)c1 | 1.5
Cn1c(=O)n(C)c2cc(/C=N/n3cnnc3)ccc21 | i
CCCCn1nc2cc(C(=O)NCc3ccc(C(F)(F)F)cc3C(F)(F)F)ccc2c1OCC | i
Cc1ccc(N(Cc2ccc([N+](=O)[O-])cc2)C(=O)c2ccco2)cc1 | i
O=S(=O)(Nc1cccc2c1ccc1cccn12)c1cccs1 | 0.2
Cc1nc(CC(=O)N2CCN(S(=O)(=O)c3ccccc3C#N)CC2)cs1 | 0.2
Cc1cccc(N2CCN(C(=O)CS(=O)(=O)Cc3nc(-c4ccccc4F)oc3C)CC2C)c1 (stereo not drawn) | 3.0
O=C(Nc1cc(C(F)(F)F)ccc1F)C1CCCCC1 | 0.1
CCCC(=O)c1ccc(N2CCN(C(=O)c3ccc(Br)cc3)CC2)c(F)c1 | 2.5
Cc1cccc(OCc2nnc(SCc3nc4cc(C(F)(F)F)ccc4c(=O)[nH]3)o2)c1 | i
CCC(=Nc1ccc(OC)cc1OC)c1c(O)n(C)c(=O)n(C)c1=O | 0.1
CC1CC(C)CN(CCCNC(=O)Cn2ncc3c(=O)oc4ccccc4c32)C1 (stereo not drawn) | 0.5
COCc1cc(C)nc(NCCc2ccccc2)c1C#N | i
COc1ccc(NC(=O)CSc2nc3ccccc3c(=O)n2CCNC(C)=O)c(OC)c1 | i
O=C(Nc1cc(=O)[nH]c2ncnn12)c1ccc(Cl)cc1Cl | 0.1
CCn1c(SCC(=O)Nc2ccccc2OC)nc2ccccc2c1=O | 0.2
Cn1cnc2nc3n(c2c1=O)CCC3 | i

Taken from above:
COc1ccc(N2CSC3=C(C#N)C(c4cc(OC)ccc4OC)CC(=O)N3C2)c(OC)c1 (stereo not drawn) @ H5N1 antiviral = 0.6
COC(=O)c1cc(Br)c(=O)n(CC(C)C)c1 @ H5N1 antiviral = 2.7
COc1ccc(N2CCN(Cc3nc4c(c(=O)n(C)c(=O)n4C)n3C(C)C(C)=O)CC2)cc1 (stereo not drawn) @ H5N1 antiviral = 1.6
CC(CN1CCCCC1)OC(=O)C1c2ccccc2Oc2ccccc21 (stereo not drawn) @ H5N1 antiviral = 1.5

Following part
SMILES,H5N1 antiviral
Cc1ccc(-n2ncc3c(=O)n(CC(=O)NC4CCCC4)cnc32)cc1C,0.8
CC(C)CNC(=O)c1ccccc1NC(=O)CN(c1ccc2c(c1)OCCO2)S(C)(=O)=O,i
Cc1ccc(C)c(OCC(=O)N2CCOCC2)c1,0.7
N#CCc1ccc(C(=O)c2ccccc2F)s1,0.2
CN1c2ccccc2Oc2c(c(=O)n(C)c(=O)n2C)C1c1cccc([N+](=O)[O-])c1 (stereo not drawn),1.2
CN(C)c1ccc(CN(C(=O)COc2ccc(Br)cc2)C2CCS(=O)(=O)C2)cc1 (stereo not drawn),0.5
COc1ccccc1NC(=O)CCc1nc(-c2cccs2)no1,0.1
CCOc1cccc(C(=O)Nc2cccc(-c3nnc(-c4ccccc4)o3)c2)c1,i
O=C(Cc1cccc2ccccc12)Nc1nc2ccccc2[nH]1,3.4
CC(C)COc1ccc(-c2nnn(CC(=O)N3CCCC3)n2)cc1,0.4
Cc1ccc(NCC(=O)N/N=C/c2ccc(OC(=O)c3ccco3)cc2)cc1,i
O=C(NCN1CCCCC1)c1cccnc1,i
CC(C)NC(=O)CSc1nnc(-c2ccco2)n1N,2.4
COc1ccc(Nc2nnc(SCC(=O)N3CCCC3)s2)cc1,i
CC(C)CNC(=S)N1CCN(C)CC1,0.2
O=C(CN1C(=O)C2CC=CCC2C1=O)NC1=NCCS1 (stereo not drawn),0.0
Cc1cc(Cl)cc(Cl)c1OCCOc1cccc2cccnc12,i
COc1cccc(-n2c(SCC(=O)O)nnc2-c2cccnc2)c1,1.4
CCN(CC)C(=O)c1oc2ccc(S(=O)(=O)N3CCCCCC3)cc2c1C,4.6
Cc1cc(S(=O)(=O)NCCCN2CCOCC2)ccc1F,1.5
COc1ccc(C2=NOC(C(=O)NCC(C)C)C2)cc1 (stereo not drawn),2.0
O=C(CN1C(=O)c2ccccc2C1=O)N1CCN(C(=O)c2ccco2)CC1,0.1
O=C(C1CCN(S(=O)(=O)c2cccnc2)CC1)N1CCN(C2CCCC2)CC1,1.6
COc1cccc(-c2cc(C(=O)Nc3cccc(O)c3)no2)c1,i
CCn1c(SCc2ccc(F)cc2)nnc1C1CCN(S(=O)(=O)c2ccc(OC)cc2)CC1,i
COC(=O)c1cn(C(=O)c2ccccc2F)nc1N,i
O=C(CSc1nc2ccccc2c(=O)[nH]1)NCc1ccc(Cl)cc1,i
Cc1c(Cl)cccc1NC(=O)CCN1CCCCC1,0.8
Cc1noc(C)c1CSc1nc2ccccc2n1CCc1ccccc1,i
O=C(c1c[nH]c2ccc(S(=O)(=O)N3CCOCC3)cc2c1=O)N1CCCC1,0.2
CCSc1nnc(C)c2ccccc12,0.3
CCCN1Cc2cccc(C(=O)Nc3ccc4c(c3)OCO4)c2C1=O,i
CCOC(=O)c1cnc2c(C)c(Cl)ccc2c1N1CCOCC1,2.3
Nc1c(C(=O)Nc2ccccc2F)sc2nc(Cc3ccccc3)cc(C(F)(F)F)c12,i
O=C(NC1CCCC1)C(c1ccsc1)N(Cc1ccccc1)C(=O)Cc1cccs1 (stereo not drawn),i
COc1cccc(C(=O)Nc2cccc(-c3nnc(-c4ccco4)o3)c2)c1,i
Cc1cc2c(c(=O)n1Cc1ccccn1)C(c1ccc3c(c1)OCO3)C(C#N)=C(N)O2 (stereo not drawn),0.8
CCCCCn1cnc2sc(-c3ccccc3)cc2c1=O,i
COc1cccc(C(=O)NC2CC3CCCC(C2)N3CC(=O)Nc2ccc(N(C)C)cc2)c1 (stereo not drawn),0.5
COc1cccc(-c2nnc(SCc3cccnc3)o2)c1,1.2
CN(c1ccc(C(=O)NCc2ccco2)cc1)S(C)(=O)=O,0.6
COc1cc(S(=O)(=O)n2ccc(C)n2)c(OC)cc1Cl,0.8
CCOC(=O)Cn1c(C(C)=O)nc2ccccc21,0.4
CCN(CC)C(=O)c1ccc2c(=O)n(CCOC)c(=S)[nH]c2c1,i
COc1ccc(NCc2nnc(SCC(=O)Nc3cc(C(F)(F)F)ccc3Cl)o2)cc1,i

Taken from above, five compounds:
SMILES,H5N1 antiviral
CN(c1ccc(C(=O)NCc2ccco2)cc1)S(C)(=O)=O,0.6
COc1cc(S(=O)(=O)n2ccc(C)n2)c(OC)cc1Cl,0.8
CCOC(=O)Cn1c(C(C)=O)nc2ccccc21,0.4
CCN(CC)C(=O)c1ccc2c(=O)n(CCOC)c(=S)[nH]c2c1,i
COc1ccc(NCc2nnc(SCC(=O)Nc3cc(C(F)(F)F)ccc3Cl)o2)cc1,i

Bioassay records (PubChem BioAssay)

Not all compounds are listed; the hit share may differ from the screen's.
